Bioassay records deposited in PubChem BioAssay by National Center for Advancing Translational Sciences (NCATS).
VDR inh – Inhibitors of the vitamin D receptor (VDR): qHTS | Vitamin D3 receptor (Homo sapiens), P11473 | VDR-SRC2-3 peptide fluorescence polarization, 2 h | Potency, µM, for inactives: max response, negative = inhibition, most hits filed as inhibitors | hit rate 0.93% among 400,000 | AID 504847, 2011; active = well fitted inhibition curve with a large enough effect; inconclusive = small, poorly fitted or top-dose-only effect, or another doubt; inactive = no such curve, though single readings can be large or run the other way; note: series mostly up to about 120 µM
Target sequence (P11473 whole entry, looked up): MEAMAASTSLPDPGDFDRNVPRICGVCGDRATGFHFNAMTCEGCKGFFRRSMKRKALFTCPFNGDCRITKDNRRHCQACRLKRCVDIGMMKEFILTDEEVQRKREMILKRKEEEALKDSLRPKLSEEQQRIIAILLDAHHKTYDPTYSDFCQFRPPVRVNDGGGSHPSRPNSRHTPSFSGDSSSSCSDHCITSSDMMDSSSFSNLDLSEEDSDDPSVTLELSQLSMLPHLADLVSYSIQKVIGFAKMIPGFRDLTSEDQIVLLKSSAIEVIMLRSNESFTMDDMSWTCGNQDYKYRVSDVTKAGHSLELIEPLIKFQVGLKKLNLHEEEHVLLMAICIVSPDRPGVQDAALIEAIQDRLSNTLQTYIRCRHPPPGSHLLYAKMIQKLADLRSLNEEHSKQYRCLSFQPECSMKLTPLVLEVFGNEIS
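Measured by FP: displacement of SRC2-3 coactivator peptide from VDR by library compounds, following a two-hour ambient incubation.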
An asterisk follows results filed as active; u = inconclusive; & = joins results of further samples. % is set by controls: 0 for no effect and ±100 for the full control effect; potency is the fitted concentration of half-maximal effect.

SMILES | VDR inh
O=C(CCNS(=O)(=O)c1ccccc1C(F)(F)F)NNC(=O)C1COc2ccccc2O1 (centres undefined) | -10.6%
Cc1ccc2ncc(C(=O)c3ccc(C)c(C)c3)c(S(=O)(=O)c3ccccc3)c2c1 | 0.5%
CCCCN(Cc1cccs1)S(=O)(=O)c1ccc(-c2ccc(=O)[nH]n2)s1 | -17.5%
Cc1nn(CC(=O)Nc2ccc3nc4n(c(=O)c3c2)CCCC4)c(C)c1[N+](=O)[O-] | -7.9%
CSc1cccc(Nc2cc(C(=O)NCCCN(C)c3ccccc3)c3ccccc3n2)c1 | 15.6%
Cc1ccccc1NS(=O)(=O)CCCCC(Cl)(Cl)Cl | 9.2%
CC1(C)CC(=O)c2ccc(O)cc2O1 | -1.1%
Cc1ccc(S(=O)(=O)N2CCCCC2)cc1NC(=O)Cn1ccsc1=N | 13.7%
Cc1noc(C)c1-c1nccc(N2CCN(C)CC2)n1 | -13.0%
Cc1ccc2nc(SCC(=O)NCc3ccccc3)nc(=O)n2c1 | 16.8%
CC(C)OC(=O)/C(=C\c1cccc2ccccc12)NC(=O)c1ccccc1 | 2.8%
CCC(C(=O)OCC(=O)N1CCN(c2ccc(OC)cc2)CC1)c1ccccc1 (centres undefined) | -0.3%
CC12CN3CCN(CC(C3)/C1=N\NC(=O)c1ccccc1N)C2 | 6.5%
FC(F)(F)c1cccc(NC(=S)NNC(=S)NCc2ccccc2)c1 | u
CCC(=O)Nc1ccccc1C(=O)OCC(=O)c1ccc2ccccc2c1 | 8.3%
COc1ccc(-c2cn[nH]c2-c2ccc(OCc3ccc([N+](=O)[O-])cc3)cc2O)cc1 | -5.6%
O=C(Nc1ccccc1N1CCOCC1)c1ccccc1[N+](=O)[O-] | 9.6%
COc1ccccc1-c1cc(C(=O)NC(C)C)no1 | -12.2%
COc1ccccc1CNc1ncnc2cc(OC)c(OC)cc12 | 11.9%
CCOc1ccc(NC(=O)c2cc3n(n2)C(C(F)(F)F)CC(c2ccco2)N3)cc1 (centres undefined) | 6.6%
CCOc1ccc(NC(=O)c2c(NCc3ccc(C)o3)sc3c2CCC(C)C3)cc1 (centres undefined) | -7.6%
CCCN1CCN(c2ccc(S(N)(=O)=O)cc2[N+](=O)[O-])CC1 | -6.2%
CC(C)(C)c1ccc(OCc2ccc(C(=O)N/N=C/c3ccc([N+](=O)[O-])cc3)o2)cc1 | 12.8%
COCCn1c(C)cc(/C=N/NC(=O)c2cc3ccccc3cc2O)c1C | 0.9%
CCOC(=O)C1=C(C)Nc2ccccc2N=C1NC(=O)c1cccc(S(=O)(=O)NCc2ccccc2)c1 | -10.1%
Later entries
SMILES | VDR inh
CCCc1nnc(NC(=O)c2cc(OC)cc(OC)c2)s1 | 2.0%
O=C(Cc1n[nH]c(=O)c2ccccc12)OCC(=O)c1ccccc1Cl | -6.7%
COc1ccc(N2CCN(C(=O)c3ccc4c(=O)n(CCc5ccc(OC)c(OC)c5)c(=O)[nH]c4c3)CC2)cc1 | -3.4%&2.3%
COc1cccc2c(=O)cn[nH]c12 | -2.3%
CCc1ccc(NC(=O)C(C)OC(=O)CCN2C(=O)C3CC=CCC3C2=O)cc1 (centres undefined) | -0.1%
Cc1noc(/C=C/N(C)C)c1S(=O)(=O)N(C)CC(=O)N1CCc2ccccc21 | 10.3%
CSCC(=O)N1CCc2ccc(NC(=O)c3ccccc3Cl)cc2C1 | 11.3%
O=C(Nc1ccccc1C(=O)NCc1cccnc1)c1ccccc1Cl | 0.8%
COc1ccc(CN(Cc2ccco2)C(=O)COc2ccc(Cl)cc2C)cc1 | 8.0%
CCOc1ccccc1NC(=S)NC1CC2CCC1C2 (centres undefined) | 2.4%
Nc1nc(Cl)nc2ccc(Br)cc12 | -16.6%
COc1cc(/C=N/NC2=NCCCCC2)ccc1O | -15.0%
Cc1cc(C)cc(NC(=O)C(Sc2ncnc3ccccc23)c2ccccc2)c1 (centres undefined) | -10.1%
O=C(CSc1nc2cccnc2n1Cc1ccccc1)N1CCCC1 | u
O=C1ON=C(c2ccccc2)/C1=C\c1ccco1 | u
CCOC(=O)c1ccc(N2CN=C3SCC(=O)N3C2)cc1 | 2.8%
CC1CC(C)CN(C(=O)c2ccc3nc[nH]c3c2)C1 (centres undefined) | -8.6%
CCOC(=O)c1sc(NC(=O)Nc2cccc(Cl)c2)cc1C | -10.8%
Cc1cc(OCC(O)CN2CCN(c3ccccn3)CC2)cc(C)c1Cl (centres undefined) | -15.1%
CCNC(=S)Nc1ccc2cn[nH]c2c1 | 1.8%
O=C1CSC(c2cccnc2)N1C1CCCCC1 (centres undefined) | -2.4%
Cc1ncc(CN2CCCC(CCC(=O)NCc3ccccc3F)C2)s1 (centres undefined) | 3.9%
CCS(=O)(=O)Nc1ccc(-c2nnc(SCC(=O)c3ccc(NC(C)=O)c(OC)c3)o2)cc1 | 13.7%
CN(/C(=N/S(=O)(=O)c1cccs1)c1ccccc1)c1ccc(O)cc1 | -1.5%
Cc1cc(C)nc(SCc2ccc(Br)cc2)n1 | -6.2%

Pulled one by one from above, five records:
SMILES | VDR inh
O=C(CSc1nc2cccnc2n1Cc1ccccc1)N1CCCC1 | u
CCOc1ccccc1NC(=S)NC1CC2CCC1C2 (centres undefined) | 2.4%
COc1ccccc1CNc1ncnc2cc(OC)c(OC)cc12 | 11.9%
Cc1ccc(S(=O)(=O)N2CCCCC2)cc1NC(=O)Cn1ccsc1=N | 13.7%
CCCCN(Cc1cccs1)S(=O)(=O)c1ccc(-c2ccc(=O)[nH]n2)s1 | -17.5%

4 structures already listed, sorted by number of heavy atoms, smallest number first:
SMILES | VDR inh
Nc1nc(Cl)nc2ccc(Br)cc12 | -16.6%
CCOc1ccccc1NC(=S)NC1CC2CCC1C2 (centres undefined) | 2.4%
Cc1cc(OCC(O)CN2CCN(c3ccccn3)CC2)cc(C)c1Cl (centres undefined) | -15.1%
Cc1noc(/C=C/N(C)C)c1S(=O)(=O)N(C)CC(=O)N1CCc2ccccc21 | 10.3%

Next section
SMILES | VDR inh
Cn1c(=O)c2c(nc(CN3CCCCC3)n2Cc2c(F)cccc2Cl)n(C)c1=O | -7.0%
Clc1ccc(-c2nc(N3CCOCC3)nc3ccccc23)cc1 | -6.8%
CSC1=NC(C)(C)CC2(C)Nc3ccccc3N12 (centres undefined) | 0.1%
CCN(CC)CCNC(=O)CSc1c2c(nc3cc(Cl)ccc13)CCCC2 | u
O=C(Nc1nc2ccccc2s1)NC1CCCCC1 | -9.9%
CCOC(=O)N1CCC(N(CCN(C)C)C(=S)Nc2cccc(SC)c2)CC1 | -7.9%
COC(=O)c1cc(S(=O)(=O)N2CCCCCC2)cn1C | -8.4%
NC(=O)c1ccc(CN2CCC(Cc3ccccc3)CC2)cc1 | 13.5%
CCCOC(=O)c1ccc(Nc2nc(C)cc(=O)[nH]2)cc1 | -5.7%
c1ccc(Nc2c(-c3ccco3)nc3ccccn23)cc1 | 0.2%
O=S(=O)(Nc1ccc(N2CCOCC2)cc1)c1cc(Cl)ccc1Cl | 1.9%
C=CCOc1ccc(/C=C/C(=O)OCC(=O)N(C)C2CCS(=O)(=O)C2)cc1 (centres undefined) | -6.5%
CN(c1ncc(C(F)(F)F)cc1Cl)N1C(=O)c2cccc(N)c2C1=O | -0.3%
COc1ccc(CNc2ncncc2-c2ccccc2C(F)(F)F)c(OC)c1 | -18.8%
CC(C)(C)c1ccc(OCC(=O)NCc2ccco2)cc1 | -11.9%
Cc1cc(C(=O)O)c(S(C)(=O)=O)s1 | 4.9%
N#Cc1ccc(CN2CCCC3(CCNCC3)C2)cc1 | -6.3%
CCOC(=O)c1cn(CC)c2c(ccc3ccccc32)c1=O | -5.6%
S=c1[nH]cnc2scc(-c3ccc(Cl)cc3)c12 | u
O=C(C1=NNCC1c1ccc(Cl)cc1)C1CO1 (centres undefined) | 4.2%
CC(NC(=O)CNC(=O)c1ccco1)c1ccccc1 (centres undefined) | -1.1%
COc1ccc(-n2c(=O)cnc3cnc(Oc4cccc(Cl)c4)nc32)cc1 | -24.1%
CCOc1ccc(CNC(=O)Cn2ncc3c(=O)oc4ccc(C)cc4c32)cc1 | -20.1%
Cc1ccc(N/C=C(\C2OC(=O)c3ccccc32)[N+](=O)[O-])c(C)c1 (centres undefined) | 5.8%
O=C(Cc1ccc(S(=O)(=O)N2CCOCC2)s1)Nc1ccccc1N1CCCC1 | 6.2%
(listing goes on)
SMILES | VDR inh
CCN(C(=O)CN1C(=O)CN(C)C1=O)c1cccc2ccccc12 | -20.7%
COc1ccc(C)cc1NC(=O)CN1CCN(S(=O)(=O)c2ccc3ccccc3c2)CC1 | -19.1%
CC1(C)Cc2nc(N3CCCC3)c(C#N)cc2CO1 | -11.1%
CCOC(=O)C1=C(CS(=O)(=O)c2ccccc2)NC(=O)NC1c1ccccc1 (centres undefined) | 8.7%
Cc1ccc(S(=O)(=O)NCCc2nnc3ccc(SCc4cccc(F)c4)nn23)cc1 | -1.5%
COCCCNC(=O)c1ccc(NC(=O)c2nsc3ccccc23)cc1 | 3.7%
Cc1ccc(-c2nc3ccccn3c2Nc2ccc3c(c2)OCO3)cc1 | -5.4%
CCCc1nnc(NC(=O)c2nc(SCC)ncc2Cl)s1 | 9.6%
COc1ccc(C)cc1NC(=O)CNc1ccccc1CN(C)C1CCCCC1 | 27.8%
CC(C)Nc1nnc(SCC(=O)NCc2ccc3c(c2)OCO3)s1 | -9.1%
CC(=O)Nc1ccc(C(=O)Nc2ccc(S(=O)(=O)Nc3nccc(C)n3)cc2)cc1 | 0.9%
Brc1cccc(CNn2cnnc2)c1 | -0.8%
CC(C)C[C@@H](CC(=O)N[C@@H](CCCN)CC(=O)N[C@@H]1CCNC[C@H]1C(=O)N[C@H](CC(=O)N[C@@H](CCC(=O)O)CC(=O)O)CC(C)C)NC(=O)[C@@H]1CNCC[C@H]1N | -2.8%
O=C(CC1CCCC1)N1CCCC(Nc2ccc(F)cc2)C1 (centres undefined) | -10.8%
COc1cccc(C2=CC(=O)C[C@H](c3ccc(Cl)cc3)C2)c1OC | -3.0%
COc1ccc(-n2nc3c(c2NC(=O)c2ccc(N4C(=O)CCC4=O)cc2)CSC3)cc1 | 10.1%
Cc1nnc(NC(=O)CSc2nnc(CCNC(=O)c3ccccc3F)n2C)s1 | -4.9%
O=S(=O)(NCC(c1cccnc1)N1CCN(Cc2ccccc2)CC1)c1ccc(F)cc1 (centres undefined) | -18.0%
Clc1ccc(-c2cc3ccccc3nc2N2CCOCC2)cc1 | u
CN(CC(=O)Nc1ccc(F)cc1)C(=O)COC(=O)c1ccccc1 | -8.1%
CC(C)c1ccc(/C=C/C(=O)NC2CCCCC2)cc1 | 0.6%
N/C(=N\c1nc2c(c(=O)[nH]1)CCCC2)Nc1ccc(Oc2ccccc2)cc1 | 6.2%
CN1CCC(=NNC(=O)CN(c2cccc([N+](=O)[O-])c2)S(=O)(=O)c2ccccc2)CC1 | -29.1%
CN(C(=O)c1ccc(Br)cc1)C1CCS(=O)(=O)C1 (centres undefined) | 1.6%
Cc1cc(OC(=O)c2cc(Cl)ccc2Cl)c([N+](=O)[O-])c(=O)[nH]1 | -10.5%

Among those listed so far, 2 have a COOH group:
SMILES | VDR inh
Cc1cc(C(=O)O)c(S(C)(=O)=O)s1 | 4.9%
CC(C)C[C@@H](CC(=O)N[C@@H](CCCN)CC(=O)N[C@@H]1CCNC[C@H]1C(=O)N[C@H](CC(=O)N[C@@H](CCC(=O)O)CC(=O)O)CC(C)C)NC(=O)[C@@H]1CNCC[C@H]1N | -2.8%

(cont.)
SMILES | VDR inh
CC(C)CCN1CCN(Cc2ccc(C(F)(F)F)cc2)CC1CCO (centres undefined) | -6.8%
S=c1[nH]c(-c2ccccc2)cs1 | u
O=[N+]([O-])c1cc(C(F)(F)F)ccc1N1CCCNCC1 | -9.0%
CCN1CCN(c2c(Cl)cccc2NC(=O)c2ccc3nsnc3c2)CC1 | 24.5%
CCOc1ccc(CC(=O)Nc2c(C(=O)c3ccc(F)cc3)oc3ccccc23)cc1OCC | 3.6%
CCCn1cnc2c(cnn2-c2ccc(F)cc2)c1=O | 0.3%
COCCCN1CC23C=CC(O2)C(C(=O)O)C3C1=O (centres undefined) | u
Cc1cc(OCC(=O)NCc2ccncc2)ccc1Cl | -1.3%
CCc1cccc(C)c1Nc1c(-c2cccc(O)c2)nc2nc(C)cc(C)n12 | -16.6%
O=S(=O)(c1ccc(Cl)c(NC(=S)N/N=C/c2c(F)cccc2F)c1)N1CCOCC1 | -6.0%
COC(=O)c1ccc(Cn2c(SCC(=O)NCc3ccccc3)nc3ccccc32)cc1 | 9.3%
CCCCCCCCCCCCCCCCOCC(CO)OC (centres undefined) | -5.7%&-2.5%
NNC(=O)c1cncc(Br)c1 | -13.7%
CC(OC(=O)c1ccc2ccccc2c1)C(=O)N(C)Cc1ccccc1 (centres undefined) | -5.0%
COCCn1c(=O)c(-c2cc(F)cc(F)c2)nc2cnc(Oc3ccccc3)nc21 | -0.5%
CCOc1ccccc1OCCCCn1c(-c2ccc(Cl)cc2)nc2ccccc2c1=O | 9.8%
CC1CN(c2nc(-c3ccc(Br)cc3)nnc2-c2ccccc2)CC(C)N1 (centres undefined) | -1.1%
O=C(O)c1ccc(N2C(=O)/C(=C\c3ccccc3)N=C2c2ccccc2)cc1 | -6.8%
CN(C)c1ccc(/C=N\NC(=S)SCN2C(=O)C3CCC(C)(C2=O)C3(C)C)cc1 (centres undefined) | 16.8%
COc1ccc(S(=O)(=O)Cc2ccc(C(=O)NC3CCCCC3)o2)cc1 | 12.7%&-10.2%
Cc1ccccc1C(=O)Nc1ccc(O)c2c(=O)cc(-c3ccccc3Cl)oc12 | -2.8%&-8.5%
CC(=O)OC1C2CCC1C([N+]1(C)CCCCC1)CC2 (centres undefined) | -7.8%
O=C(NCCCCCCCCNC(=O)c1cccc2ccccc12)c1cccc2ccccc12 | -17.9%
CCOc1ccccc1C(=O)N(C)CC(=O)Nc1ccc(OC)cc1 | -9.6%
Cc1nnc(C)n1/N=C/c1ccc(C(C)C)cc1 | 8.8%
CCCCOC(=O)CCc1c(C)n[nH]c1C | -2.5%
O=C1CCSC2(C(=O)N(Cc3ccc(F)cc3)c3ccccc32)N1c1cccc(F)c1 (centres undefined) | -4.4%

The list is partial; count on the stated rates, not on these rows.
